High-throughput results as filed in PubChem BioAssay.
Eya2 phos inh: blocks the phosphatase activity of human Eya2; 330,000 tested, 0.006% active; recombinant Eya2, OMFP fluorescence dephosphorylation (OMFP is methylfluorescein phosphate); Potency, µM (highest dose often 76.9 µM), without a hit: at the highest dose activity, negative = inhibition, hits mostly inhibitors; O00167; also: potency is read from the fitted curve at half-maximal effect; % is scaled to controls: 0 for no effect and ±100 for the full control effect
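Eya2 protein (added as 0.2 uM solution) was preincubated with compound for 10 min at ambient temperature in 50 mM HEPES pH 7.5, 50 mM NaCl, 5 uM MgCl2, 0.05% BSA, 1 mM DTT. OMFP (added at 50 uM) then reacted 10 min; fluorescence read at 485/525 nm.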
BRCA1 expr act: BRCA1 expression activation. MCF7-BRCA1-FFLuc reporter, luminescence, 48 h; response scale: scaled: vehicle 0%, 10 µM genistein 100%. Potency, µM (series often up to 46.1 µM), inactives show at the highest dose activation, hits mostly activators. 380,000 tested, 1.1% active; also: potency is read from the fitted curve at half-maximal effect; nearly all actives have a fitted effect of over 80% in size; some results filed as inactive show a strong effect at the top dose
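MCF7-BRCA1-FFLuc, 2000 cells/well; 2 h attach, 37 °C/5% CO2; compound 48 h; luciferase substrate 15 min; luminescence end-point. Norm. to genistein 10 microM max activation and DMSO; concentration-response curves fitted.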
ASM inhibitor: inhibitors of human secretory acid sphingomyelinase. AID 504937. Potency, µM (titrated, usually from 57.5 µM), without a hit: at the highest dose activity change, negative = inhibition, most hits filed as inhibitors. placental ASM, HMU-PC fluorogenic substrate, 60 min. P17405. 340,000 tested, 0.006% active; also: potency is read from the fitted curve at half-maximal effect
Target sequence (P17405 47-631 limits assumed): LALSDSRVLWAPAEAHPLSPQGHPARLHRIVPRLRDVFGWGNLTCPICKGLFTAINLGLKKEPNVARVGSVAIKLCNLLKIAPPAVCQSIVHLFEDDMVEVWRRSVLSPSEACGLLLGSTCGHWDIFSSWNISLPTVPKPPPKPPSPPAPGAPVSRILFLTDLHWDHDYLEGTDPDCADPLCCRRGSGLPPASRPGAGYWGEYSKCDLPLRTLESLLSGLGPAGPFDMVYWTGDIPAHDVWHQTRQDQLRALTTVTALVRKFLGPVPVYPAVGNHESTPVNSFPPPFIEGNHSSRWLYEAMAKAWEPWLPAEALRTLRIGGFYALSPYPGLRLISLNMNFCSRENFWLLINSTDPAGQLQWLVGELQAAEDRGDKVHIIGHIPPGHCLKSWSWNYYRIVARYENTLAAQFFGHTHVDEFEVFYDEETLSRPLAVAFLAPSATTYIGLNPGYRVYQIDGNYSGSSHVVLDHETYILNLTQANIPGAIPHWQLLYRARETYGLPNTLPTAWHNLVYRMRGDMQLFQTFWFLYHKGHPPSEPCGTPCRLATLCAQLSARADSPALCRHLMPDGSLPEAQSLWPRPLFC
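qHTS format. ASM enzyme prepared from human placenta hydrolyses the fluorogenic substrate HMU-PC0 (9 uM final) over 60 min at 37 °C after a 10 min compound preincubation.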
PTAP TSG101 blk: blocks PTAP/TSG101 interaction to inhibit HIV-1 budding; Fluorescence polarization, FITC-PTAP peptide / Tsg101 binding; Q99816; 340,000 tested, under 10 active; AID 493005; Potency, µM (series often up to 115 µM), for inactives: top-dose activity change, negative = inhibition, most hits filed as inhibitors; active = well fitted inhibition curve with a large enough effect in the main read-out, with a control signal flat, not every such curve was filed as active; inconclusive = small, poorly fitted or top-dose-only effect, or effect the other way, or a change in a side signal; inactive = no such curve, though single readings can be large or run the other way; also: potency is read from the fitted curve at half-maximal effect; % of control where 0% means no effect
Target sequence (Q99816 whole entry, looked up): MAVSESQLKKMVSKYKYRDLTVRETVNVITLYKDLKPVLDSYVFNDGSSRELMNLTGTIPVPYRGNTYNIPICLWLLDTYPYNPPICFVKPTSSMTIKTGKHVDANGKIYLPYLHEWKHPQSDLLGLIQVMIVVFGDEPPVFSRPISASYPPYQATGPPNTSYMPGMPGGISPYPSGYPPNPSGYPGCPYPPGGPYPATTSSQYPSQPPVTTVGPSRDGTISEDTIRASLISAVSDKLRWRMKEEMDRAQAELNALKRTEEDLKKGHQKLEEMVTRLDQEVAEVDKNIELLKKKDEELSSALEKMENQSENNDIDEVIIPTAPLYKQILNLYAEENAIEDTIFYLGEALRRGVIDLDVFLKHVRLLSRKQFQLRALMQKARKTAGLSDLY
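Steps: Tsg101 binding domain dispensed (10 uM final), compounds pinned in DMSO, FITC-labeled PTAP-motif peptide added (50 nM final); after 20 min binding at room temperature, polarization measured.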
Integrin act MD: activates integrin-mediated alleviation for muscular dystrophy; AID 624291; 350,000 tested, 0.064% active; alpha7betagal myoblasts, beta-gal FDG fluorescence, 48 h; Potency, µM (highest dose often 38.3 µM), for the others: top-dose activation, usual class: activators;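 also: potency is read from the fitted curve at half-maximal effect; 100% = response of the positive control SU9516; nearly all actives have a fitted effect of over 60% in size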
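Alpha7betagal+/- myoblasts (passage 13) were plated 16-24 hr, then exposed to compounds (1:260 dilution of DMSO stock) for 48 hours at 37C. After MPER lysis, β-galactosidase reporter activity was read as FDG fluorescence (ex 480/em 540) after 30 minutes.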
ELG1 genotox: induces genotoxicity in HEK293T cells with luciferase-tagged ELG1; HEK293T ELG1-luciferase reporter, luminescence, 16 h; Potency, µM (titrated, usually from 46 µM), without a hit: at the highest dose activity change, positive = activation, actives largely listed as activators; 330,000 tested, 1.3% active; AID 504466; also: potency is read from the fitted curve at half-maximal effect; % of control where 0% means no effect; nearly all actives have a fitted effect of over 60% in size
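Quantitative HTS format in 1536-well plates. HEK293T ELG1-luciferase reporter cells receive test compound and are incubated 16 hr at 37 °C, 5% CO2; ONE-Glo added, 30 min room temperature, then luminescence read.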
p53 reactivation: mutant p53 re-activation in reporter cells; H1299 p53-A138V BP100-luciferase reporter, luminescence, 24 h; Potency, µM (titrated, usually from 92.2 µM), for the others: top-dose activity change, positive = activation, hits mostly activators; 320,000 tested, 0.063% active; AID 504706; also: potency is read from the fitted curve at half-maximal effect; % of control where 0% means no effect; nearly all actives have a fitted effect of over 45% in size
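H1299 (p53-null), stable ts p53-A138V + BP100-Luc; 1000 cells/well, Opti-MEM/10% FBS; cpd 4 pt, 1:5; 24 h, 37 deg C, 5% CO2; detection reagent 10 min RT; luminescence.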
USP2a block: USP2a (human) protease inhibition. 330,000 tested, 0.01% active. Potency, µM (highest dose often 38.3 µM), for inactives: at the highest dose activity change, negative = inhibition, hits mostly inhibitors. USP2 core, Ub-CHOP2 coupled fluorogenic reporter, 485/531. O75604;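 also: potency is read from the fitted curve at half-maximal effect; plate controls were DMSO wells for no effect and full inhibition by NEM control for full effect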
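USP2 core (10nM final) preincubated 30min RT with compound in 20mM Tris-HCl pH 8.0, 2mM CaCl2, 2mM beta-mercaptoethanol, 0.05% CHAPS; 25nM Ub-CHOP2 plus 25nM reporter substrate added, fluorescence (Ex485/Em531) read after 60min.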
TRPV1 ag: activates the human vanilloid receptor TRPV1. Q8NER1. TRPV1-expressing cells, Fluo-8 calcium influx, agonist mode. activation, % at 8.33 µM. 320,000 tested, 0.19% active. AID 540275; in the data active = activation above about 80%; inconclusive = between about 30% and that limit; also: 0% is about no effect
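TRPV1-expressing cells were cultured overnight at 35.5C and loaded with Fluo-8 calcium dye for 40 to 90 min at room temperature. After a 10 s baseline, compound was added and calcium influx was read kinetically for 3 min (ex 480/em 520 nm).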
uPA surface inh: blocks generation of uPA at the cell surface. cell surface uPA generation assay, qHTS. Potency, µM (top dose mostly 38.3 µM), inactives show at the top dose activity change, negative = inhibition, hits mostly inhibitors. 330,000 tested, 0.31% active. AID 540303; active = well fitted inhibition curve with a large enough effect; inconclusive = small, poorly fitted or top-dose-only effect; inactive = no such curve, though single readings can be large or run the other way; tested in mouse RAW 264.7 cells; also: potency is read from the fitted curve at half-maximal effect; % is scaled to controls: 0 for no effect and ±100 for the full control effect; nearly all actives have a fitted effect of over 55% in size
The depositor's hits bear a star; ? = inconclusive; · = no result given; & = joins results of further samples; [ ] = remark or other dose. Unless noted, calls follow the shape of the dose curve; as a rule, active = well fitted curve in the direction sought with a large enough effect; inconclusive = small, poorly fitted or top-dose-only effect, or another doubt; inactive = no such curve, though single readings can be large; an effect the other way counts as inactive or inconclusive.

SMILES	Eya2 phos inh	BRCA1 expr act	ASM inhibitor	PTAP TSG101 blk	Integrin act MD	ELG1 genotox	p53 reactivation	USP2a block	TRPV1 ag	uPA surface inh
Clc1ccccc1C(c1ccccc1)(c1ccccc1)n1ccnc1	-1%&9%	-35%	6%	-1%	·	-8%	-4%	1%	?	?
O=C(O)Cc1cc(I)c(Oc2ccc(O)c(I)c2)c(I)c1	8%	·	·	·	·	-2%	-2%	0%	0	·
Clc1ccc(C(Cn2ccnc2)OCc2c(Cl)cccc2Cl)c(Cl)c1 (stereo not given)	-2%	-30%	-5%	-2%	·	20%	-4%	2%	8	-19%
C[C@]12CC[C@@H]3c4ccc(OS(=O)(=O)O)cc4CC[C@H]3[C@@H]1CCC2=O	4%&-9%	1%&-17%	11%&2%	-5%&-9%	·	0%&-7%	7%&5%	4%&-1%	-3&-1	-2%&-1%
CC(C)(Sc1cc(C(C)(C)C)c(O)c(C(C)(C)C)c1)Sc1cc(C(C)(C)C)c(O)c(C(C)(C)C)c1	6%	-10%	1%	-5%	·	0%	-1%	5%	7	8%
Clc1cccc(Cl)c1NC1=NCCN1	1%&-20%	·	·	·	·	·	·	-3%	-2	·
OC[C@@H](O)[C@@H](O[C@H]1O[C@H](CO)[C@@H](O)[C@H](O)[C@H]1O)[C@H](O)[C@@H](O)CO	3%	4%	-4%	0%	·	·	·	1%	-5	14%
CCS(=O)(=O)CCn1c([N+](=O)[O-])cnc1C	0%	-31%	1%	0%	·	-1%	2%	0%	-1	1%
CC(C)(C)NC[C@H](O)COc1cccc2c1CCCC2=O	4%	44%	2%	-7%	·	-8%	-5%	0%	-3	-3%
O=Nc1c(-c2c(O)[nH]c3cc(Br)ccc23)[nH]c2ccccc12	-11%&-7%	-61%	?	0%	·	?	·	-3%	28	?
NCc1ccccc1	18%	1%	-1%	1%	·	3%	9%	1%	1	14%
Nc1nc2ncc(CNc3ccc(C(=O)N[C@@H](CCC(=O)O)C(=O)O)cc3)nc2c(=O)[nH]1	-21%	3%	353%[activator]	0%	-2%	-1%	6%	-1%	-2	-3%
CC(=O)N1CCN(c2ccc(OC[C@@H]3CO[C@@](Cn4ccnc4)(c4ccc(Cl)cc4Cl)O3)cc2)CC1	·	-45%&-54%	·	·	·	·	·	·	·	·
CCOC(=O)Oc1c(OC)cc(C(=O)O[C@@H]2C[C@@H]3CN4CCc5c([nH]c6cc(OC)ccc56)[C@H]4C[C@@H]3[C@H](C(=O)OC)[C@H]2OC)cc1OC	-3%	0%	-5%	14%	·	-45%[inhibitor]	-1%	7%	-2	-23%
O=c1n(CCCN2CCN(c3cccc(Cl)c3)CC2)nc2ccccn12	5%&1%	-25%&10%	40%[activator]	4%	·	-2%	0%	-1%	1	-1%
COC(=O)C1C(O)CCC2CN3CCc4c([nH]c5ccccc45)C3CC21 (stereo not given)	9%	-34%	46%[activator]	-8%	-2%	0%	3%	1%	-3	0%
C=CCc1ccccc1OCC(O)CNC(C)C (stereo not given)	-1%&3%	7%	-3%	-1%	·	1%	-1%	4%	-2	-14%
CSc1ccc(C(=O)c2[nH]c(=O)[nH]c2C)cc1	-3%&-3%	27%	-3%	-5%	·	?	-3%	2%	1	-12%
COc1ccc(Cl)cc1C(=O)NCCc1ccc(S(=O)(=O)NC(=O)NC2CCCCC2)cc1	13%&1%	0%	-3%	-6%	·	0%	-5%	-1%	-2	-9%
CNC(CC(C)C)C(=O)NC1C(=O)NC(CC(N)=O)C(=O)NC2C(=O)NC3C(=O)NC(C(=O)NC(C(=O)O)c4cc(O)cc(O)c4-c4cc3ccc4O)C(O)c3ccc(c(Cl)c3)Oc3cc2cc(c3OC2OC(CO)C(O)C(O)C2OC2CC(C)(N)C(O)C(C)O2)Oc2ccc(cc2Cl)C1O (stereo not given)	·	-2%	-4%	1%	·	·	·	·	·	11%

Three compounds out of the list, arranged by molar mass, smallest number first.
SMILES	Eya2 phos inh	BRCA1 expr act	ASM inhibitor	PTAP TSG101 blk	Integrin act MD	ELG1 genotox	p53 reactivation	USP2a block	TRPV1 ag	uPA surface inh
CC(C)(C)NC[C@H](O)COc1cccc2c1CCCC2=O	4%	44%	2%	-7%	·	-8%	-5%	0%	-3	-3%
O=C(O)Cc1cc(I)c(Oc2ccc(O)c(I)c2)c(I)c1	8%	·	·	·	·	-2%	-2%	0%	0	·
CCOC(=O)Oc1c(OC)cc(C(=O)O[C@@H]2C[C@@H]3CN4CCc5c([nH]c6cc(OC)ccc56)[C@H]4C[C@@H]3[C@H](C(=O)OC)[C@H]2OC)cc1OC	-3%	0%	-5%	14%	·	-45%[inhibitor]	-1%	7%	-2	-23%

The listing picks up, repeating the two entries before the break.
SMILES	Eya2 phos inh	BRCA1 expr act	ASM inhibitor	PTAP TSG101 blk	Integrin act MD	ELG1 genotox	p53 reactivation	USP2a block	TRPV1 ag	uPA surface inh
COc1ccc(Cl)cc1C(=O)NCCc1ccc(S(=O)(=O)NC(=O)NC2CCCCC2)cc1	13%&1%	0%	-3%	-6%	·	0%	-5%	-1%	-2	-9%
CNC(CC(C)C)C(=O)NC1C(=O)NC(CC(N)=O)C(=O)NC2C(=O)NC3C(=O)NC(C(=O)NC(C(=O)O)c4cc(O)cc(O)c4-c4cc3ccc4O)C(O)c3ccc(c(Cl)c3)Oc3cc2cc(c3OC2OC(CO)C(O)C(O)C2OC2CC(C)(N)C(O)C(C)O2)Oc2ccc(cc2Cl)C1O (stereo not given)	·	-2%	-4%	1%	·	·	·	·	·	11%
COc1ccc(CCN2CCC(Nc3nc4ccccc4n3Cc3ccc(F)cc3)CC2)cc1	-4%	-31%	3%	-1%	·	8%	-3%	-9%	4	?
CNC(CC(C)C)C(=O)NC1C(=O)NC(CC(N)=O)C(=O)NC2C(=O)NC3C(=O)NC(C(=O)NC(C(=O)O)c4cc(O)cc(O)c4-c4cc3ccc4O)C(O)c3ccc(c(Cl)c3)Oc3cc2cc(c3OC2OC(CO)C(O)C(O)C2OC2C[C@](C)(N)C(O)C(C)O2)Oc2ccc(cc2Cl)C1O (stereo not given in full)	-26%	11%	4%	0%	·	-10%	4%	0%	-2	10%
CN(C)c1nc(N(C)C)nc(N(C)C)n1	3%&-13%	33%	-1%	-3%	·	2%	-1%	2%	-3	6%
CC#C[C@]1(O)CC[C@H]2[C@@H]3CCC4=CC(=O)CCC4=C3[C@@H](c3ccc(N(C)C)cc3)C[C@@]21C	2%&6%	0%	-11%	0%	·	-8%	-6%	-20%	5	?
NS(=O)(=O)c1cc2c(cc1Cl)NC=NS2(=O)=O	6%&2%	1%	0%	1%	·	0%	1%	2%	1	-2%
COC(=O)[C@H]1[C@H]2C[C@H]3c4[nH]c5ccccc5c4CCN3C[C@H]2CC[C@@H]1O	6%&21%	-3%	4%	0%	·	8%	·	-1%	0	-2%
CCCCC1=NC2(CCCC2)C(=O)N1Cc1ccc(-c2ccccc2-c2nn[nH]n2)cc1	7%	·	·	·	·	·	·	6%	-5	·
CN(C)CCCN1c2ccccc2Sc2ccc(Cl)cc21	-2%&-16%&1%	-23%&-52%&-41%&-49%	-7%&-1%	2%&-1%	·	1%&-5%	-3%&-10%	-8%&3%	6&3	?
CC(=O)O[C@H]1C(=O)[C@@]2(C)[C@H]([C@H](OC(=O)c3ccccc3)[C@]3(O)C[C@H](OC(=O)[C@H](O)[C@@H](NC(=O)c4ccccc4)c4ccccc4)C(C)=C1C3(C)C)[C@]1(OC(C)=O)CO[C@@H]1C[C@@H]2O	6%	-29%&-46%	-7%	-4%	·	-17%	-5%	0%	4	-41%
CC1=C(C(=O)O)N2C(=O)[C@@H](NC(=O)C(N)c3ccccc3)[C@H]2SC1 (stereo not given in full)	2%	·	·	·	·	·	·	·	·	·
C=C(C)c1ccccc1	9%	-2%	3%	1%	·	-2%	1%	2%	-1	5%
c1ccc(CNc2ncnc3nc[nH]c23)cc1	-4%	10%&6%&43%	-5%	-5%	·	-5%	3%	1%	3	9%
CN1CCN2c3ncccc3Cc3ccccc3C2C1 (stereo not given)	·	25%	-3%	0%	·	·	·	·	·	-4%
Cc1cc(Cc2ccc(N)c(C)c2)ccc1N	1%	-18%	2%	-5%	2%	-1%	-2%	-1%	-4	0%
CSc1ccc2c(c1)N(CCC1CCCCN1C)c1ccccc1S2 (stereo not given)	-6%&-4%	-3%&-56%	-11%	-2%	·	-1%	-3%	-5%	19	?
CN(C)CCCN1c2ccccc2CCc2ccc(Cl)cc21	-4%&-3%	-32%	4%	0%	·	0%	-5%	3%	6	-25%
CCN(Cc1ccncc1)C(=O)C(CO)c1ccccc1 (stereo not given)	4%&3%	-3%	2%	-1%	·	3%	19%	0%	-1	-8%
CC1(C)SC2[C@H](NC(=O)C(NC(=O)N3CCNC3=O)c3ccccc3)C(=O)N2C1C(=O)O (stereo not given in full)	1%	·	·	·	·	-3%	3%	1%	-3	·
C[N+]1(C)CC[C@H](OC(=O)[C@@](O)(c2ccccc2)C2CCCC2)C1	-8%	-2%	7%	-3%	·	0%	14%	-4%	-3	-6%

Some of the compounds tested; rates above refer to the full screens.
